Screening data: PubChem, National Center for Advancing Translational Sciences (NCATS)
StopGo reporter = lowers the luciferase signal of an FMDV 2A StopGo reporter; human cells with a luciferase reporter of 2A StopGo recoding; control for the full effect not named in the record; Potency, µM (top dose mostly 57.9 µM), inactives show at the highest dose signal change, negative = less light; 1.2% of 410,000 active; active = well fitted falling curve with a large enough effect; inconclusive = small, poorly fitted or top-dose-only effect; inactive = no such curve, though single readings can be large or run the other way; tested in HEK293T cells; further: nearly all actives have a fitted effect of over 45% in size; luciferase light after 4 h
RE007 growth inh = less growth of the S. pombe RE007 Vpr strain; Potency, µM (series often up to 92.2 µM), for inactives: at the highest dose activity change, negative = less growth; AID 651644; 0.21% of 360,000 active; S. pombe RE007 Vpr strain, BacTiter-Glo ATP luminescence, 24 h; control for the full effect not named in the record; active = well fitted falling curve with a large enough effect; inconclusive = small, poorly fitted or top-dose-only effect; inactive = no such curve, though single readings can be large or run the other way;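 further: nearly all actives have a fitted effect of over 50% in size; the assay follows cell death caused by Vpr and the record does not say whether a fall means rescue or toxicity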
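Fission yeast strain RE007, carrying one chromosomally integrated HIV-1 vpr copy, was seeded at OD 0.01 in PMG+AL medium with 23 nL pinned compound. After 24 h at 30 °C and 99% humidity, viability was read by BacTiter-Glo luminescence.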
* hit, by the source's call; ? = inconclusive; [ ] = dose if it differs, or a comment. On the % scale 0 is the no-effect control and ±100 the full control effect; potency means the concentration at half of the fitted maximal effect.

No.	SMILES	StopGo reporter	RE007 growth inh
1	C[C@@H]1O[C@@H](O[C@H]2[C@H](Oc3cc(O)c4c(c3)OC(c3ccc(O)cc3)CC4=O)O[C@H](CO)[C@@H](O)[C@@H]2O)[C@H](O)[C@H](O)[C@H]1O (stereo partly drawn)	-22%	-11%[18.4 µM]
2	Oc1ccc(-c2csc(Nc3ccc4c(c3)OCO4)n2)c(O)c1	22%	5%
3	CC1CCC(NC(=O)c2[nH]c(C(F)(F)F)nc2-c2ccccc2)CC1 (stereo not drawn)	-11%	8%
4	COC(=O)[C@]12CCCCC=C1N(Cc1ccco1)C(=O)[C@H](CC(=O)NCc1ccc(C)o1)C2	-14%	2%
5	CCNC(=O)C1(C)CCCN(C(=O)c2sc(-c3ccccc3)nc2C)C1 (stereo not drawn)	-1%	-9%
6	CC1(C(=O)Nc2cccc3cccnc23)CCN1C(=O)CCC1CCCC1 (stereo not drawn)	-26%	5%
7	CN(C(=O)c1ccc(NC(=O)Cc2cccc(NC(=O)C3CCCN(C(=O)CCc4ccccc4)C3)c2)cc1)C1CC1 (stereo not drawn)	13%	5%
8	CC(=O)Nc1ccc(C2=NOC(C)(C)C(=O)N2Cc2cccc(C#N)c2)cc1	-12%	8%[18.4 µM]
9	CN(C)c1cccc(NC(=O)C2Cc3c(-c4cccnc4)ccnc3O2)c1 (stereo not drawn)	17%	8%[18.4 µM]
10	CCc1c(-c2ccc(OC)cc2)ncn1Cc1cccc(-c2ccccc2)c1	?	-17%
11	O=C1c2ccccc2C(=O)N1N=Cc1ccc2c(c1)OCO2	41%[activator]	10%
12	Cc1ccc(S(=O)(=O)N(C)c2ccc(C(=O)NCC(c3ccco3)N3CCCC3)cc2)cc1 (stereo not drawn)	?	-7%
13	O=C1NC[C@H](Cc2ccccc2)N(C[C@@H]2CCCN2C[C@H](Cc2ccccc2)N2C[C@H](Cc3ccccc3)N(CC3CCCCC3)C(=O)C2=O)C1=O	3%	10%
14	CC(C)(C)Cc1c(-c2ccc(Cl)cc2)nc2c(Cl)cc(C(F)(F)F)cn12	-18%	7%
15	CC(C)(C)OC(=O)NCCCCCO	-21%	3%
16	CN(C)CCOc1ccc(/C(=C(/CCCl)c2ccccc2)c2ccccc2)cc1	-9%	-3%[18.4 µM]
17	CCN1C[C@@H]2[C@@H]3C(=O)N(C)C(=O)[C@@H]3[C@](C)(C1=O)N2C(=O)c1ccc(C(C)(C)C)cc1	-8%	-9%
18	COC(=O)[C@]12CCCCC=C1N(Cc1cccc3ccccc13)C(=O)[C@H](CC(=O)N1CCSCC1)C2	-13%	1%
19	O=C(NCCc1ccccc1)c1cc(-c2ccccc2)c(N2CCOCC2)s1	-2%	1%
20	OC(c1cccc(Cl)c1)c1ncc(-c2ccc3ccccc3c2)[nH]1 (stereo not drawn)	67%[activator]	3%
21	Nc1ccn([C@@H]2O[C@H](C(=O)N3CCCN(Cc4ccccc4F)CC3)[C@@H](O)[C@H]2O)c(=O)n1	-19%	0%
22	CC1(C(=O)O)CCCN1C(=O)c1cccc(F)c1 (stereo not drawn)	-14%	0%
23	Cc1ccc(-n2c(COc3ccccc3)nnc2SCC(=O)O)cc1	12%	-5%
24	OC(c1ccc(F)cc1)c1nc(-c2cccc(C(F)(F)F)c2)cs1 (stereo not drawn)	10%	?
25	CCN(CC)c1ccc(NC(=O)COC(=O)CCc2cc(OC)c(OC)c(OC)c2)cc1	-14%	-14%
26	CCNC(=O)C1CCCN(Cc2ccc3ccccc3c2Br)CC1 (stereo not drawn)	-18%	-24%
27	CC1(C(=O)NS(=O)(=O)c2cccc(C#N)c2)CCN1C(=O)CCC1CCCC1 (stereo not drawn)	-6%	-6%
28	Nc1[nH]c(C(=O)c2ccccc2)c(-c2ccccc2C(F)(F)F)c1C(=O)NCc1cccc2ccccc12	-12%	-1%
29	COc1cc(OC)cc(C2=Cc3ccc(OC)cc3C(CC(C)=O)N2c2ccc(C#CCCO)cc2)c1 (stereo not drawn)	0%	-3%
30	CCCCNC(=O)C1(C)CCN1C(=O)c1cccc2c1OCCO2 (stereo not drawn)	5%	10%
31	CC1(C(=O)Nc2cccc(Oc3ccccc3)c2)CCN1C1Cc2ccccc2C1 (stereo not drawn)	-15%	-3%[18.4 µM]
32	COc1ccc(C(CNC(=O)c2ccc(C)c(S(=O)(=O)N3CCOCC3)c2)N2CCCC2)cc1 (stereo not drawn)	-10%	-4%
33	CC(=O)c1cccc(-c2cnc3c(NC=O)cc(-c4ccc(C(=O)N5CCOCC5)cc4)cn23)c1	-11%	-1%[18.4 µM]
34	CCN(CC)C(=O)C1=C(C)N(CCCOC)C(=O)C(CC(=O)NCC2CCCCC2)C1 (stereo not drawn)	-21%	-12%
35	CCC(Sc1nc2ccsc2c(=O)n1CCC(=O)O)C(=O)Nc1ccc(Cl)cc1 (stereo not drawn)	4%	-10%
36	COc1ccc(C2CCc3cc(OC)c(OC)cc3C2NC=O)cc1OC (stereo not drawn)	-24%	4%
37	COc1ccc(NC(=O)C(C2CC2)n2c(=O)c(-c3ccccc3)nc3ccccc32)cc1 (stereo not drawn)	-11%	-13%
38	Oc1ccc(C[C@H]2CNC(=S)N2C[C@H]2CCCN2C[C@H](Cc2ccccc2)N2C[C@H](Cc3ccc(O)cc3)N(CCc3ccccc3)C2=S)cc1	-19%	-1%
39	CC1(C)Cc2c(c(N3CCOCC3)nc3sc4c(NCCN)ncnc4c23)CO1	-12%	8%
40	O=C(Nc1ccccc1)C1=C[C@@H](c2ccc(C(F)(F)F)cc2)C[C@@H](OCCCCO)O1	-19%	-10%
41	OCC[C@@H]1C[C@H](O)[C@@H](O)[C@]2(CCCCO2)O1	6%	6%
42	CCc1nc2c(OCc3ccc(Cl)cc3)cccn2c1N(C)C(=O)c1ccc2c(c1)OCO2	-12%	0%
43	CCCC1NC(=O)c2cc3ccccc3cc2-n2c1nc1ccc(C)cc1c2=O (stereo not drawn)	?	-2%
44	O=C(NCc1cccc(C(F)(F)F)c1)C1C(=O)Nc2ccccc2C(=O)N1C1CCCC1 (stereo not drawn)	2%	10%
45	COc1ccccc1NC(=O)N(C)C[C@@H]1OCc2ccccc2-c2c(n(C)c3ccccc23)C(=O)N([C@H](C)CO)C[C@@H]1C	?	33%
46	CC(C)Nc1ncnc2c1ncn2[C@H]1CN(Cc2cccs2)C[C@@H](CO)O1	-19%	-2%
47	CCCCCCCCN1C(=O)[C@H](CC(=O)N2CCCC2)C[C@@]2(C(=O)OC)CC(C)(C)CC=C12	-26%	-24%
48	COc1ccccc1CN(C)C[C@@H]1OCc2cnnn2CCCC(=O)N([C@H](C)CO)C[C@H]1C	-14%	4%
49	CC12CCC(=O)N1C(C(=O)NCCc1ccc(F)cc1)CS2 (stereo not drawn)	-11%	6%
50	CC(=O)Nc1c(Cl)cnn(-c2ccccc2)c1=O	-12%	12%

Next section.
No.	SMILES	StopGo reporter	RE007 growth inh
51	COc1ccc(-c2csc(NC(=O)c3c(C)noc3C)n2)cc1OC	?	-5%
52	COc1cc2c(cc1OC)C(=O)C(c1ccc3c(c1)OCO3)CC2 (stereo not drawn)	-10%	12%
53	CNC(=O)OCc1nc(SC2CCCCO2)n(C)c1COC(=O)NC (stereo not drawn)	-6%	2%[18.4 µM]
54	CN(Cc1ccc2c(c1)CCCN2C)C(=O)[C@H]1O[C@@H](n2ccc(=O)[nH]c2=O)[C@H](O)[C@@H]1O	-12%	1%
55	COc1ccc([C@H]2CC(=O)C[C@@H](CCn3nnc4ccccc43)O2)cc1	-15%	-20%
56	Cc1ccc(S(=O)(=O)NN=C2CC3CC2C2CCCC32)cc1 (stereo not drawn)	20%	2%
57	CC(Nc1nc(-c2ccc(F)cc2)cs1)c1nc2cc(Cl)c(N3CCCCC3)cc2n1CCCO (stereo not drawn)	-27%	3%
58	CN1C(=O)CN(CCN2CC(=O)N(C)C(=O)C2)CC1=O	-13%	-8%
59	CCN(CC)CCNC(=O)c1ccc(NC(=O)c2cccc(S(=O)(=O)N(C)C3CCCCC3)c2)cc1	8%	-15%
60	O=C(CC[C@H]1O[C@@H](n2ccc(=O)[nH]c2=O)[C@H](O)[C@@H]1O)N1CCN(Cc2cccc3ccccc23)CC1	0%	-17%
61	CCC(c1nnnn1-c1ccc2c(c1)OCCO2)N1CCN(c2cccc(C)c2C)CC1 (stereo not drawn)	?	0%
62	CC(O)(c1ccccc1)c1nc(-c2ccncc2)cs1 (stereo not drawn)	?	-5%
63	CCC(=O)N1CCC1(C)C(=O)Nc1cnc2ccccc2c1 (stereo not drawn)	-1%	-16%[18.4 µM]
64	Cc1ccc(S(=O)(=O)N(C)C[C@H]2OCc3cn(nn3)CCCC(=O)N([C@@H](C)CO)C[C@@H]2C)cc1	-24%	-6%
65	NC(=O)c1cccc(-c2ccnc3c2CC(C(=O)NCC2CC2)O3)c1 (stereo not drawn)	-7%	-15%
66	Cc1ccccc1C(=O)N1CCC[C@H]1C(=O)N1CCC[C@H]1C(=O)NCc1ccccn1	-13%	4%
67	O=c1[nH][nH]c2c1[C@H](c1ccc(Cl)cc1)O[C@H](CCc1ccccc1)C2	0%	-17%
68	CCC(c1nnnn1-c1c(C)cccc1C)N1CCN(CCN2CCOCC2)CC1 (stereo not drawn)	-14%	2%
69	CCCCN(C)CCCNC(=O)Cn1cc2c(n1)-c1c(oc(C(=O)N3CCCC3)c1C)CC2	-18%	-5%
70	CC(C)C[C@@H](CN1CCC[C@@H]1CN1C(=O)C(=O)NC[C@@H]1Cc1ccccc1)N1C[C@H](Cc2ccc(O)cc2)N(CC2CCCCCC2)C(=O)C1=O	-18%	1%

No new results follow: an excerpt of the list.
No.	SMILES	StopGo reporter	RE007 growth inh
1	C[C@@H]1O[C@@H](O[C@H]2[C@H](Oc3cc(O)c4c(c3)OC(c3ccc(O)cc3)CC4=O)O[C@H](CO)[C@@H](O)[C@@H]2O)[C@H](O)[C@H](O)[C@H]1O (stereo partly drawn)	-22%	-11%[18.4 µM]
2	Oc1ccc(-c2csc(Nc3ccc4c(c3)OCO4)n2)c(O)c1	22%	5%
3	CC1CCC(NC(=O)c2[nH]c(C(F)(F)F)nc2-c2ccccc2)CC1 (stereo not drawn)	-11%	8%
4	COC(=O)[C@]12CCCCC=C1N(Cc1ccco1)C(=O)[C@H](CC(=O)NCc1ccc(C)o1)C2	-14%	2%
5	CCNC(=O)C1(C)CCCN(C(=O)c2sc(-c3ccccc3)nc2C)C1 (stereo not drawn)	-1%	-9%
6	CC1(C(=O)Nc2cccc3cccnc23)CCN1C(=O)CCC1CCCC1 (stereo not drawn)	-26%	5%

Additional records follow.
No.	SMILES	StopGo reporter	RE007 growth inh
71	CSc1ccccc1C(=O)OCC(=O)NC1CC1	8%	-17%
72	Cc1cccc(-c2ocnc2C(=O)Nc2ncc(C)s2)c1	0%	-13%
73	O=C(Nc1ccc(Cl)c(C(F)(F)F)c1)C1Cc2c(-c3ccccc3Oc3ccccc3)ccnc2O1 (stereo not drawn)	?	4%
74	C[C@H](CO)N1C[C@H](C)[C@@H](CN(C)S(=O)(=O)c2cn(C)cn2)Oc2ncc(Br)cc2C1=O	-22%	1%
75	COCCNc1nc(NCc2cccc(OC)c2)c2sc(-c3ccccc3)cc2n1	0%	?
76	O=C(O)C(=Cc1ccccc1Cl)c1ccccc1	-11%	12%
77	c1ccc(CNCCCn2cnc3c(OCc4ccccc4)ncnc32)cc1	3%	-8%
78	C=C1C(=O)O[C@H]2C[C@H]1[C@@H](OC(C)=O)C/C(C)=C/CC/C(C)=C\CC[C@]2(C)O	7.1µM*	-21%
79	CN(C)Cc1ncccc1Oc1nc2cc(-c3cccc(Cl)c3)sc2c(=O)n1C	-1%	-2%
80	CCNC(=O)c1cc2c(c(-c3cccc(-c4ccccc4F)c3)n1)[C@H](CCO)N(C(=O)CC)C2	-24%	6%
81	COc1cccc(C2=CC(=O)CCC2)c1OC	4%	-10%
82	Cn1c(SCC(=O)NC2CCCCC2)nc2c(c1=O)SCC2	?	5%
83	Nc1nc(F)nc2c1ncn2[C@@H]1O[C@H](CO)[C@@H](O)[C@H]1O	?	-5%[18.4 µM]
84	O=[N+]([O-])c1ccc(Nc2ccccc2O)c([N+](=O)[O-])c1	-28%	-21%
85	COc1ccc(CC(O)CO)cc1OCc1ccccc1 (stereo not drawn)	11%	-23%
86	N#Cc1cccc(C(=O)C(=O)N2CCC(c3ccccc3)CC2)c1	-6%	-17%
87	C[C@@H]1CCCCO[C@H](CN(C)C(=O)Nc2ccccc2)[C@@H](C)CN([C@H](C)CO)C(=O)c2cc(NS(=O)(=O)c3cn(C)cn3)ccc2O1	-16%	-4%
88	COc1ccc(Cl)cc1S(=O)(=O)NC(C)c1cnn(-c2ccccn2)c1C (stereo not drawn)	0%	3%
89	CCCCNC(=O)[C@@H]1CC=C[C@@H]2CCN(C3CC3)C(=O)[C@@H]21	7%	10%
90	C[C@H](CO)N1C[C@H](C)[C@@H](CN(C)C(=O)c2ccncc2)OCc2cnnn2CCCC1=O	-2%	1%
91	CCC1(CC)C(=O)C2=C3C1[C@H](C(=O)OC)CC(C(=O)OC)C[C@H]3n1c(=O)n(-c3ccccc3)c(=O)n1[C@H]2C (stereo partly drawn)	-14%	-13%
92	O=C(NCc1cccnc1)c1csc([C@H]2C[C@H](O)[C@@H](CO)O2)n1	-21%	-4%[18.4 µM]

The list is partial; the hit share may differ from the screen's.
